Assay outcomes: PubChem, several laboratories
PrP UTR inh = inhibition of PrP 5' UTR reporter expression. cell-based PrP 5' UTR mRNA reporter, plate reader. inhibition, % (test concentration not listed). 0.35% of 340,000 active. AID 488862;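 active means every replicate at 50% or more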;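 further: 0 = median of the neutral control wells; tested in H4 reporter cells; numbers are from one replicate; inactives centre near -14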
Mtb hypoxia inh = Mtb hypoxia fluorescent reporter inhibition; fluorescence inhibition, % (no concentration beside the values); M. tuberculosis hypoxia-regulated fluorescent reporter, fluorescence; AID 1159583; 0.1% of 300,000 active;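 active means 35 to 45% if threefold the growth effect, above 45% if 1.5-fold the growth effect; inactive means the rest, general growth blockers included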;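 further: wells of about 50 µL received 100 nL stock; 0% = vehicle wells and 100% = reference inhibitor wells; whole bacteria with a GFP reporter of the hypoxia response; strong numbers were not always called active; many hits fall short of the cut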
Sa ugtP lethal = kills S. aureus RN4220 lacking UgtP; S. aureus RN4220 ugtP deletion, OD600 growth, 16 h; some inactives read as strong as hits; growth inhibition, % (no concentration beside the values); 0.54% of 330,000 active;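 active means z-score under -3 and OD600 up to 0.15 on both plates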;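 further: plate controls were untreated wells for no effect and antibiotic for full effect; wells of about 80 µL received 100 nL stock; the first replicate is given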
RN4220 kill = S. aureus RN4220 growth inhibition | 0.33% of 330,000 active | inhibition, % (no concentration beside the values) | OD600, 16 h | AID 1259311;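 active means z-score of -3 or lower and OD600 up to 0.18 on both plates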;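 further: plate controls were untreated cells for no effect and reference antibiotic for full effect; stock transfer was 100 nL into about 80 µL; one replicate is shown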
Autofluor counter = compound fluorescence in toxin protease inhibitor counterscreen | compound autofluorescence counterscreen, microsphere flow cytometry; stronger effect = higher value | fluorescence intensity (concentration not given with the values) | 3.1% of 360,000 active;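 active means at least 3 SD above the mean of all compounds, about 16000 in these data; inconclusive means too few beads counted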;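 further: 100 nL of 1 mM stock went into each well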
BJeLR viability = BJeLR cell viability loss. BJeLR (HRASV12) viability, CellTiter-Glo ATP luminescence, 48 h; reference of the scale not given here. inhibition, % (no concentration beside the values). 0.17% of 300,000 active;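 active means replicate mean above 50%; inconclusive means above 50% but judged a plate artefact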;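 further: 50 nL library stock added to about 25 µL; numbers are from one replicate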
Mtb hypoxia inh growth = also measured in Mtb hypoxia inh; calls as there; growth inhibition, %; measured here: M. tuberculosis growth (absorbance);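 0% = vehicle and 100% = reference antibiotic; read after six days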
The depositor's hits bear a star; ? = inconclusive; nt = no result given.

# | canonical_smiles | Autofluor counter | RN4220 kill | BJeLR viability | Mtb hypoxia inh growth | Mtb hypoxia inh | PrP UTR inh | Sa ugtP lethal
1 | Cc1ccc(N(C(=O)Cc2cccs2)C2C=CS(=O)(=O)C2)cc1Cl (stereo unspecified) | 2756 | 3.3 | 2 | 6 | 7 | -1 | -5
2 | Cn1cc(Cl)c(C(=O)Nc2cccc(Cl)c2Cl)n1 | 10794 | 2.6 | -1 | 6 | 5 | -45 | 4
3 | C(#CCN1CCOCC1)CCCN1CCOCC1 | 3967 | 0.3 | nt | 5 | 0 | -12 | -5
4 | Nc1ccccc1C(=O)NN=C1C2CN3CCN(C2)CC1(Cc1ccccc1)C3 | nt | 8.6 | nt | 0 | 6 | nt | 5
5 | CC(=O)c1ccc(NC(=O)CSC(=S)N2CCCC2)cc1 | 2740 | 2.5 | 0 | 16 | 4 | -20 | -1
6 | CC(CNc1nc2ccc(Cl)cc2n2cnnc12)c1ccccc1 (stereo unspecified) | 3709 | 0.8 | 8 | -1 | 1 | -7 | -16
7 | COc1ccc(S(=O)(=O)N(C)CC(=O)NCc2cccnc2)cc1C | 5181 | 1.9 | -9 | nt | nt | -19 | 3
8 | Cc1nn(CCCC(=O)NCCc2ccccc2)c(=O)c2nn(-c3ccccc3)c(C)c12 | 5772 | 0.6 | 0 | 7 | 9 | -12 | 8
9 | Cc1c(C(=O)O)c(=O)n(-c2ccccc2)n1-c1ccccc1 | 4373 | 4.8 | 0 | 4 | -1 | -5 | 4
10 | COc1ccc(OC)c(/C=N/Nc2cc(C)nc(N3CCOCC3)n2)c1 | 5563 | nt | -4 | nt | nt | -26 | nt
11 | COc1cccc(-c2nc(CS(=O)(=O)CC(=O)NCCCN3CCOCC3)c(C)o2)c1 | 5123 | 4.3 | 4 | 6 | 3 | 0 | 7
12 | Cc1ccc(C(C)C)c(OCC(=O)NN=CC2CCCCC2)c1 | nt | 3.3 | nt | 4 | -5 | nt | 15
13 | CCOC(=O)c1c(C)[nH]c(C)c1C(=O)COc1ncnc2cc([N+](=O)[O-])ccc12 | 3831 | -2.9 | -4 | 9 | -1 | -3 | 2
14 | O=C(NNC(=O)c1cccs1)c1ccc(Cl)c(S(=O)(=O)N2CCCC2)c1 | 3835 | 3.9 | nt | 12 | 6 | -9 | -2
15 | COc1ccc(CN(C)C(=O)C(Cc2ccccc2)NC(=O)c2ccccc2)cc1F (stereo unspecified) | 5990 | -3.3 | nt | 7 | 7 | 1 | 0
16 | Cn1c(N)c(C(=O)COC(=O)c2ccc3c(c2)C(=O)N(c2ccc(Cl)cc2)C3=O)c(=O)n(C)c1=O | 4275 | 13 | -1 | 7 | 5 | -17 | 3
17 | CCOCCc1nnc(NC(=O)C2CC(=O)N(c3ccc(OCC)cc3)C2)s1 (stereo unspecified) | 5505 | 1.0 | 12 | 5 | 14 | -8 | 1
18 | CCOc1ccc(N(CC(=O)N2CCOCC2)S(=O)(=O)c2ccc(SC)cc2)cc1 | 3137 | 5.0 | -3 | -1 | 5 | -8 | 7
19 | COc1cc(C=NNC(=O)C[n+]2ccccc2)cc(OC)c1OC(C)=O | nt | 4.9 | nt | 11 | 12 | nt | 5
20 | CC1CCCN(C(=O)CCc2ccccc2)C1 (stereo unspecified) | 2557 | 6.0 | -3 | nt | nt | -40 | -7

The list continues:
# | canonical_smiles | Autofluor counter | RN4220 kill | BJeLR viability | Mtb hypoxia inh growth | Mtb hypoxia inh | PrP UTR inh | Sa ugtP lethal
21 | O=P(O)(OCc1ccccc1)OCc1ccccc1 | 5153 | 5.4 | nt | 5 | 6 | -1 | 3
22 | COc1ccccc1-n1c(CNC(=O)c2cccc([N+](=O)[O-])c2C)n[nH]c1=S | 4695 | 6.7 | -7 | -1 | 0 | -13 | 4
23 | Clc1ccc(-c2nc(-c3cnccn3)no2)cc1 | 4513 | 3.6 | 13 | 0 | 16 | -90 | 4
24 | Cc1ccc(S(=O)(=O)N2CCSC2)cc1C | 5644 | 6.0 | 4 | 1 | 6 | -3 | 11
25 | COC(=O)C1=C(c2cc3ccccc3s2)CC2CCC1N2C(=O)NC1CCCCC1 (stereo unspecified) | nt | -8.3 | nt | 11 | 7 | nt | 8
26 | Cc1ccccc1OCCCn1cc(C(=O)C(=O)N2CCOCC2)c2ccccc21 | 3155 | 2.2 | 3 | -3 | -6 | -6 | 10
27 | CCCCc1cc(=O)oc2cc(OCC(=O)N3CCC(C(N)=O)CC3)ccc12 | 5144 | 6.1 | -1 | nt | nt | -3 | 11
28 | O=C(CCN1C(=O)C2CCCCC2C1=O)Nc1ccc(OC(F)F)cc1 (stereo unspecified) | ? | 1.9 | 3 | -1 | 2 | -1 | 3
29 | CC(=O)CSc1nc(-c2ccccc2)c(-c2ccccc2)o1 | 4063 | 7.6 | 0 | 7 | 4 | 0 | 26
30 | CCOc1ccccc1NC(=O)COC(=O)/C=C/c1ccc(OC)c(OC)c1 | 4678 | 3.6 | 7 | 0 | 1 | -20 | 3
31 | Brc1ccc2oc(-c3ccn[nH]3)cc2c1 | 3849 | -3.0 | -5 | -8 | 8 | nt | -2
32 | CC(C)(C)C(=O)NC(=S)Nc1ccccc1F | 4621 | -2.5 | -8 | nt | nt | -30 | 4
33 | Cc1cccc(-n2c(C)cc(/C=N\NC(=O)c3cccs3)c2C)c1 | 2276 | nt | 7 | nt | nt | -33 | nt
34 | Cc1c(C)c2ccc(OCC(=O)NC3CCN(Cc4ccccc4)CC3)c(C)c2oc1=O | 6909 | -6.6 | 3 | 5 | 2 | 0 | -1
35 | COC(=O)C1=C(C)N(Cc2ccccc2)C(=NCCCCO)NC1c1ccccc1 (stereo unspecified) | nt | 3.4 | nt | 1 | 7 | nt | -5
36 | O=C(COc1ccc(F)cc1Cl)Nc1cc(S(=O)(=O)N2CCOCC2)ccc1N1CCCCC1 | 6711 | -1.8 | -15 | -4 | 9 | -3 | -10
37 | CC(=NO)C1CCC2C3CCC4=CC(=NO)CCC4(C)C3C(=O)CC12C (stereo unspecified) | 3535 | 7.2 | nt | 13 | 15 | -9 | 3
38 | Cc1cc(NC(=O)CSc2c3c(nc4ccccc24)CCC3)no1 | 4592 | -13 | -1 | 8 | 4 | -5 | -7
39 | Cc1sc2ncnc(OCC(=O)Nc3ccc4c(c3)OCCO4)c2c1C | 3407 | -15 | -10 | 16 | 16 | -6 | -8
40 | NS(=O)(=O)c1ccc(CCNC(=O)COC(=O)C2CCCN2C(=O)c2cccs2)cc1 (stereo unspecified) | 3883 | 1.1 | 2 | 9 | 16 | -27 | 7

More structures
# | canonical_smiles | Autofluor counter | RN4220 kill | BJeLR viability | Mtb hypoxia inh growth | Mtb hypoxia inh | PrP UTR inh | Sa ugtP lethal
41 | NC(=O)c1nc(-c2cccs2)nc2c1[nH]c(=O)n2-c1ccc(F)cc1 | 5637 | 2.8 | -1 | 0 | 5 | -13 | 5
42 | c1ccc(Nc2nnc(SCc3cccc4ccccc34)s2)cc1 | 5011 | 6.9 | -2 | nt | nt | -28 | -19
43 | Cc1ncc([N+](=O)[O-])n1CC(=O)N/N=C/c1ccc(F)cc1 | 4291 | nt | 7 | nt | nt | -20 | nt
44 | CCOc1ccc(NC(=O)c2ccc(Br)o2)c([N+](=O)[O-])c1 | 3471 | -1.9 | 3 | nt | nt | -57 | 4
45 | c1ccc2c(c1)OCC(c1nnc3sc(-c4ccc5c(c4)OCO5)nn13)O2 (stereo unspecified) | 3776 | 1.7 | -4 | 6 | -2 | -39 | -18
46 | COc1ccc(-c2cc(C(F)F)n3ncc(C(=O)N4CCN5CCCC5C4)c3n2)cc1 (stereo unspecified) | 17221* | 4.2 | 0 | 7 | 8 | -9 | -13
47 | Cc1cccc(C)c1NC(=S)Nc1ccc(Cl)c(Cl)c1 | 2494 | 19 | 7 | 1 | 11 | 1 | -12
48 | Cc1cc(C)c(NC(=O)CN2C(=O)NC(Cc3ccccc3)C2=O)c(C)c1 (stereo unspecified) | 3390 | 3.3 | -9 | 1 | 0 | -89 | 8
49 | Cc1cccc([C@@H]2[C@@H]3C(=O)N(Cc4ccccc4)C(=O)[C@@H]3[C@]3(CC(C)C)C(=O)N(c4cccc(Br)c4)C(=O)N23)c1 | 4695 | nt | 1 | nt | nt | -4 | nt
50 | Cc1cccn2c(=O)c3cc(C(=O)NCc4ccco4)c(=N)n(CCc4ccccc4)c3nc12 | 4935 | 0.4 | nt | -5 | 4 | -23 | 1
51 | O=C(CSc1cc(Cl)ccc1Cl)NCCCn1ccnc1 | 4078 | 2.6 | 3 | -1 | -13 | -23 | 5
52 | CCOc1cc(C=NNC(=O)C(=O)N2CCCC2)ccc1O | nt | 0.3 | nt | -11 | -2 | nt | 2
53 | Cc1ccc(CC(=O)Nc2cccc(C)n2)cc1 | 8057 | 1.9 | -1 | 20 | 21 | -42 | 3
54 | COc1cc(OC)cc(C(=O)NCCCNC(=O)c2cccnc2)c1 | 3681 | -2.1 | -9 | -7 | -2 | -13 | 10
55 | CCOC(=O)Cc1cc(=O)n2[nH]c(C(C)(C)C)cc2n1 | 3749 | 2.0 | 6 | 2 | 8 | -10 | 7
56 | CCC(C)N1CC(C(=O)NC2CCCCC2)CC1=O (stereo unspecified) | 2662 | -19 | 4 | 1 | 5 | -31 | -7
57 | COc1ccccc1-c1nnc(-c2ccc(F)cc2)o1 | 6470 | 5.7 | 8 | nt | nt | nt | -14
58 | Cc1ccc(NC(=O)CN(C)CC(=O)Nc2c(C)cccc2C)c(Br)c1 | 4240 | 3.4 | -2 | nt | nt | -14 | 2
59 | CSc1ccc(/C=C(/NC(=O)c2ccco2)C(=O)N2CCCCC2)cc1 | 5156 | 1.8 | 0 | 8 | 4 | -22 | 8
60 | CCOC(=O)C1CCN(C(c2cccc(OC)c2)c2sc3nc(C)nn3c2O)CC1 (stereo unspecified) | 4082 | -12 | -6 | 11 | 1 | -4 | -3

In another format: results already given
Sequence of screens: Autofluor counter | RN4220 kill | BJeLR viability | Mtb hypoxia inh growth | Mtb hypoxia inh | PrP UTR inh | Sa ugtP lethal
46. COc1ccc(-c2cc(C(F)F)n3ncc(C(=O)N4CCN5CCCC5C4)c3n2)cc1 (stereo unspecified)
  17221* | 4.2 | 0 | 7 | 8 | -9 | -13
49. Cc1cccc([C@@H]2[C@@H]3C(=O)N(Cc4ccccc4)C(=O)[C@@H]3[C@]3(CC(C)C)C(=O)N(c4cccc(Br)c4)C(=O)N23)c1
  4695 | nt | 1 | nt | nt | -4 | nt
50. Cc1cccn2c(=O)c3cc(C(=O)NCc4ccco4)c(=N)n(CCc4ccccc4)c3nc12
  4935 | 0.4 | nt | -5 | 4 | -23 | 1
54. COc1cc(OC)cc(C(=O)NCCCNC(=O)c2cccnc2)c1
  3681 | -2.1 | -9 | -7 | -2 | -13 | 10
48. Cc1cc(C)c(NC(=O)CN2C(=O)NC(Cc3ccccc3)C2=O)c(C)c1 (stereo unspecified)
  3390 | 3.3 | -9 | 1 | 0 | -89 | 8
51. O=C(CSc1cc(Cl)ccc1Cl)NCCCn1ccnc1
  4078 | 2.6 | 3 | -1 | -13 | -23 | 5

Next structures:
# | canonical_smiles | Autofluor counter | RN4220 kill | BJeLR viability | Mtb hypoxia inh growth | Mtb hypoxia inh | PrP UTR inh | Sa ugtP lethal
61 | Cn1cccc1C=NN1CCN(c2ccccc2)CC1 | nt | 4.3 | nt | -8 | 3 | nt | -5
62 | O=C(Nn1cnnc1)c1ccc(Cl)c(Cl)c1 | 4168 | 4.9 | -8 | 11 | 4 | -22 | 6
63 | CCOC(=O)c1c(C)oc2c1c1c(c3ccccc32)OCN(Cc2ccccn2)C1 | 2589 | 20 | 4 | -2 | -12 | -82 | 6
64 | CCCCNC(=S)NNC(=O)c1csc(C)c1C | 2309 | 1.5 | 3 | 2 | -3 | -15 | 4
65 | CCOc1ccccc1N1Cc2cc(C)c(C)cc2C1 | 4747 | -11 | 9 | 8 | 4 | -10 | -11
66 | COc1cc(C2CC(=O)c3cnc(N)nc3C2)cc(OC)c1OC (stereo unspecified) | 5254 | 4.5 | -6 | 11 | 3 | -15 | -1
67 | CN(N=Cc1cccc(Br)c1)C1=NS(=O)(=O)c2ccccc21 | nt | 9.3 | nt | 12 | -1 | nt | 68
68 | Cc1cccc(NC(=S)N(CCc2ccncc2)C(C)C)c1C | 6195 | 9.0 | -2 | -2 | 13 | -4 | 5
